Mtb bLac sens: beta-lactam sensitization of Mtb H37Rv, H37Rv; 0.27% of 330,000 active; inhibition, % at 25 µM; M. tuberculosis H37Rv growth with meropenem, percent inhibition; hits of this screen are not shown here; AID 434955, 2010;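 active means about 74% or more and at least 40 points above the plate without the antibiotic, then above 30% in a dose series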;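 further: growth measured after seven days incubation then overnight dye step; 0% = bacteria only wells and 100% = bacteria with antibiotic; twin plates without the antibiotic show which effects depend on it; some results filed as inactive read as strong as hits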
Starred values were filed as active, the others as inactive.

entry | Compound | Mtb bLac sens
1 | C[C@H]1COC(=O)[C@@H](Cc2ccc(F)cc2)CC/C=C/C[C@@H](CC(=O)N(CCO)Cc2ccccc2)C(=O)N1 | -6
2 | CC1CCCC(NC(=O)C2COc3ccccc3O2)C1C (stereo not given) | 15
3 | C=CC[C@@H](Cc1ccc(F)cc1)C(=O)OC[C@H]1CCCN1C(=O)[C@H](CC=C)CC(=O)N(CCO)Cc1ccccc1 | -5
4 | COc1cccc(C(=O)NCC(=O)OCC(=O)NC2CCCCC2)c1 | -3
5 | CN(C)C(CNC(=O)c1ccc2[nH]c(=O)c(=O)[nH]c2c1)c1ccco1 (stereo not given) | -6
6 | Cc1ccc(Cn2c(=O)c3ccccc3n3c(SCC(=O)N4CCCCC4C)nnc23)cc1 (stereo not given) | 8
7 | CCCCCCSc1ccc([C@@H]2[C@H]3C(=O)N(CC)C(=O)[C@H]3[C@]3(C(=O)OC)CCCCN23)cc1 | -14
8 | CS(=O)(=O)N1CCC(C(=O)Nc2ccc(F)c(Cl)c2)CC1 | -5
9 | O=C(COC(=O)c1c(Cl)cccc1Cl)NC1CCCCCCC1 | 10
10 | COC(=O)C1=C(c2ccc(F)cc2OCc2ccccc2)C[C@@H]2CC[C@H]1N2C(=O)N1CCCC1 | 2
11 | C[C@H](NC(=O)c1ncn(Cc2ccccc2)c1C(=O)N[C@@H](C)c1ccccc1)c1ccccc1 | 23
12 | Nc1nc(SCC(=O)Nc2ccc(Br)cc2Br)n[nH]1 | -10
13 | CC(=O)c1ccc(NC(=O)CSc2nc3ccccc3c(=O)n2CCCN2CCOCC2)cc1 | -1
14 | CCN(c1ccccc1)S(=O)(=O)c1ccc(C(=O)NC2CCN(Cc3ccccc3)CC2)cc1 | 2
15 | CCOC(=O)c1c(C)n(S(=O)(=O)c2ccc(C)cc2)c2ccc(O)c(C(=O)O)c12 | 0
16 | CCCn1ccnc1SC(C)C(=O)Nc1c(C)n(C)n(-c2ccccc2)c1=O (stereo not given) | -5
17 | Nn1c(SCC(=O)Nc2cccnc2Cl)nnc1-c1ccccc1 | -8
18 | CCc1noc(C)c1C(=O)NNC(=O)c1ccccc1Cl | -6
19 | COc1cccc(NC(=O)CN(C)C(=O)c2c(C)noc2C)c1 | -6
20 | CCCCN(C(=O)c1cccc(N2C(=O)c3ccccc3C2=O)c1)c1c(N)n(CC(C)C)c(=O)[nH]c1=O | 0
21 | Cc1ccc(C(=O)NC(=O)CSc2nncn2C)cc1 | 2
22 | CCOc1ccc(C(=O)OCC(=O)N(Cc2ccccc2)Cc2ccccc2)cc1OC | -13
23 | C=CC[C@H](CC(=O)N[C@H](CO)Cc1ccccc1)C(=O)N[C@@H](COC(=O)[C@@H](CC=C)Cc1ccc(F)cc1)Cc1c[nH]c2ccccc12 | 6
24 | COc1ccc(NC(=O)CN(C)C(=O)c2ccc(N3CCCC3)c([N+](=O)[O-])c2)cc1 | -2
25 | O=C(COC(=O)CNC(=O)c1ccc(Cl)cc1Cl)NNC(=O)c1ccccc1F | 0
26 | O=C1C=C(c2ccc(F)cc2OCc2ccccc2)C[C@@H](c2ccc3c(c2)OCO3)C1 | 12
27 | O=C(O)[C@@H]1CCCN(S(=O)(=O)c2cccc3cccnc23)C1 | -19
28 | CCOc1ccc(CN(C)C(=O)CCc2ccc(S(=O)(=O)N3CCCCCC3)cc2)cc1 | 0
29 | O=C(COC(=O)c1ccc2ncsc2c1)NCc1cccc(Cl)c1 | 53
30 | CCCNC(=O)C(Cc1ccc(I)cc1)NC(=O)C1CC1 (stereo not given) | 14
31 | CCc1ccccc1NC(=O)CNC(=O)c1ccc(OCc2cn3ccccc3n2)cc1 | -10
32 | C[C@H]1COC(=O)CCC/C=C\C[C@H](CC(=O)N(CCO)Cc2ccccc2)C(=O)N1 | -1
33 | CCC(C)N(C(=O)CSc1ncnc2sccc12)C1CCS(=O)(=O)C1 (stereo not given) | -5
34 | CC1CN(c2nc3ccccc3nc2NS(=O)(=O)c2ccccc2)CC(C)O1 (stereo not given) | 0
35 | O=C(C1=C(O)C(=O)N(c2nc3ccc(Cl)cc3s2)C1c1ccco1)c1ccco1 (stereo not given) | 37
36 | O=C(O)CCSc1nnc(SCC(=O)NC2CCS(=O)(=O)C2)s1 (stereo not given) | -8
37 | CCc1ccc(OCCCCN(C)Cc2ccccc2)cc1 | 0
38 | CC(NC(=O)COc1ccccc1)C(=O)NCc1ccccc1Cl (stereo not given) | 2
39 | O=C(CNC(=O)c1ccc(Br)o1)NNC(=O)c1ccc(Br)cc1 | -3
40 | c1ccc(-c2ccc3[nH]ccc3c2)cc1 | 2
41 | NC(=O)c1ccsc1NC(=O)CSc1nnc(NC2CC2)s1 | 2
42 | COc1ccc(CN(C)CC(=O)Nc2ccccc2C(=O)NC2CC2)cc1F | 2
43 | CCc1nccn1S(=O)(=O)c1cc(OC)ccc1OC | -2
44 | O=c1ccc2cc3ccoc3cc2o1 | -8
45 | O=C(COC(=O)c1ccc(F)cc1F)Nc1cccnc1Cl | 2
46 | COC(=O)C1=C(c2ccc(F)cc2OCc2ccccc2)C[C@@H]2CC[C@H]1N2C(=O)NCCO | -1
47 | O=C(Cn1cnc2ccccc2c1=O)N1CCN(S(=O)(=O)c2ccc(F)cc2)CC1 | -3
48 | Cc1ccc(C(=O)Nc2ccccc2-c2ccccc2)cc1S(=O)(=O)Nc1ccccc1 | 66
49 | O=C(c1ccc(S(=O)(=O)Nc2ccccc2F)cc1)N1CCN(c2ccccn2)CC1 | -4
50 | CCc1ccc(N2CCN(CCNC(=O)Nc3ccc(OC)cc3)CC2)cc1 | 2

Continued:
entry | Compound | Mtb bLac sens
51 | Cc1ccc(-c2csc(NC(=O)c3c(C)noc3C)n2)cc1 | 86
52 | Cc1ccc([C@@H]2CC=C(C(=O)O)[C@H](c3cccc(Cl)c3)N2S(=O)(=O)c2ccc(C)cc2)cc1 | 5
53 | C#CCOCCOCCOCCNc1nc(N2CCN(C(=O)[C@H](CCCCN)n3cc(CCC(=O)O)nn3)CC2)nc(N2CCN(C(=O)[C@H](CCCCN)n3cc(CC(C)O)nn3)CC2)n1 (stereo not given in full) | -5
54 | CC(=O)Nc1ccc(NC(=O)COC(=O)c2ccccc2C(=O)c2ccccc2)cc1 | 0
55 | Cc1cccc(NC(=O)C2CCCN2C(=O)OCc2ccccc2)c1 (stereo not given) | -3
56 | COc1cccc(CC(=O)OCC(=O)c2cc(OC)c(OC)c(OC)c2)c1 | 1
57 | COC(=O)C1=C(c2ccc(OC(F)(F)F)cc2)C[C@@H]2CC[C@H]1N2C(=O)N1CCCCC1 | -1
58 | CC(C)NC(=O)c1ccc(NC(=O)CC2SC(N3CCCC3)=NC2=O)cc1 (stereo not given) | 2
59 | COc1cc(CN2CCc3c([nH]c4ccccc34)C2)cc(OC)c1 | 6
60 | CCOC(=O)C1=C(COC(=O)[C@H](C)NS(=O)(=O)c2ccccc2F)NC(=O)NC1C (stereo not given in full) | -3
61 | CCOC(=O)[C@H]1[C@H]2COc3ccc(Br)cc3[C@@H]2N2C(=O)CN(Cc3ccc(F)cc3)C(=O)[C@@]12C | 0
62 | COc1ccc(C(=O)O)cc1S(=O)(=O)Nc1ccccc1C(=O)NCc1ccc2c(c1)OCO2 | -2
63 | Cc1cc(C(=O)OCC(=O)NCc2ccccc2)c2ccccc2n1 | -2
64 | CC(=O)c1ccc(OCCCC(=O)Nc2cccc(S(=O)(=O)N3CCCCC3)c2)cc1 | -4
65 | O=C1C=C(c2ccc(C(=O)O)cc2)C[C@@H](c2ccc3c(c2)OCO3)C1 | 72
66 | CCOc1ccc(C(=O)COC(=O)Cn2cnc3c2c(=O)n(C)c(=O)n3C)cc1 | -4
67 | O=S(=O)(NC1CCC(NS(=O)(=O)c2c(F)cccc2F)CC1)c1ccc2c(c1)OCCO2 (stereo not given) | -1
68 | NC1CCc2cc(O)c(O)cc2C1 (stereo not given) | 2
69 | CCOc1cc(-c2noc(CCC(=O)NCC3CCCO3)n2)ccc1OC (stereo not given) | -3
70 | O=C(O)c1nn(Cc2csc(-c3ccccc3)n2)c(=O)c2ccccc12 | 1
71 | CCc1ccc(C(C)NC(=O)COC(=O)c2ccc(-n3cnnn3)cc2)cc1 (stereo not given) | -3
72 | CCOc1ccc(CN(C)C(=O)CNC(=O)c2sc3ccccc3c2Cl)cc1 | 4
73 | CC(=O)Nc1ccc(S(=O)(=O)N[C@@H](C)C(=O)N(C)Cc2cccs2)cc1 | -2
74 | Cc1noc(C)c1NC(=O)Nc1cccc2c1O[C@H](CN(C)C(=O)Nc1ccc(C(F)(F)F)cc1)[C@@H](C)CN([C@H](C)CO)C2=O | 3
75 | COc1cccc(OC)c1C1=CC(=O)C[C@H](c2ccc3c(c2)OCO3)C1 | 8
76 | Cc1ccc(C(=O)C(C)OC(=O)C2CCN(c3ccc(C(F)(F)F)cn3)CC2)cc1C (stereo not given) | -2
77 | C=CC[C@H](CC(=O)N(CCO)Cc1ccccc1)C(=O)N[C@H](C)COC(=O)[C@@H](CC=C)Cc1ccc(F)cc1 | 6
78 | COc1cccc2sc(N)nc12 | 2
79 | O=C(COC(=O)c1ccc(Br)o1)NCc1ccc2c(c1)OCO2 | 5
80 | COc1ccccc1CN1Cc2cccc3c2[C@@H](CC1=O)[C@H](O)[C@H](O)C3 | -2

Screen by screen, quoted from above:
Compounds 75–79 in Mtb bLac sens, in turn: 8, -2, 6, 2, 5

In the list so far, these have a COOH group.
entry | Compound | Mtb bLac sens
15 | CCOC(=O)c1c(C)n(S(=O)(=O)c2ccc(C)cc2)c2ccc(O)c(C(=O)O)c12 | 0
27 | O=C(O)[C@@H]1CCCN(S(=O)(=O)c2cccc3cccnc23)C1 | -19
36 | O=C(O)CCSc1nnc(SCC(=O)NC2CCS(=O)(=O)C2)s1 (stereo not given) | -8
52 | Cc1ccc([C@@H]2CC=C(C(=O)O)[C@H](c3cccc(Cl)c3)N2S(=O)(=O)c2ccc(C)cc2)cc1 | 5
53 | C#CCOCCOCCOCCNc1nc(N2CCN(C(=O)[C@H](CCCCN)n3cc(CCC(=O)O)nn3)CC2)nc(N2CCN(C(=O)[C@H](CCCCN)n3cc(CC(C)O)nn3)CC2)n1 (stereo not given in full) | -5
62 | COc1ccc(C(=O)O)cc1S(=O)(=O)Nc1ccccc1C(=O)NCc1ccc2c(c1)OCO2 | -2
65 | O=C1C=C(c2ccc(C(=O)O)cc2)C[C@@H](c2ccc3c(c2)OCO3)C1 | 72
70 | O=C(O)c1nn(Cc2csc(-c3ccccc3)n2)c(=O)c2ccccc12 | 1

Given as labelled records: part of the list above
(73) CC(=O)Nc1ccc(S(=O)(=O)N[C@@H](C)C(=O)N(C)Cc2cccs2)cc1
  Mtb bLac sens: -2
(74) Cc1noc(C)c1NC(=O)Nc1cccc2c1O[C@H](CN(C)C(=O)Nc1ccc(C(F)(F)F)cc1)[C@@H](C)CN([C@H](C)CO)C2=O
  Mtb bLac sens: 3
(75) COc1cccc(OC)c1C1=CC(=O)C[C@H](c2ccc3c(c2)OCO3)C1
  Mtb bLac sens: 8
(76) Cc1ccc(C(=O)C(C)OC(=O)C2CCN(c3ccc(C(F)(F)F)cn3)CC2)cc1C (stereo not given)
  Mtb bLac sens: -2

Carrying on.
entry | Compound | Mtb bLac sens
81 | CN(C(=O)c1ccc(N2CCCCC2)c([N+](=O)[O-])c1)C1CCS(=O)(=O)C1 (stereo not given) | -2
82 | COc1ccc(S(=O)(=O)Nc2cccc3c2O[C@H](CN(C)Cc2ccccc2)[C@@H](C)CN([C@H](C)CO)C3=O)cc1 | 6
83 | Cc1ccc(NC(=O)COC(=O)CC2CCCC2)cc1F | -2
84 | Cc1ccc(NC(=O)CN(C)C(=O)c2ccc(NS(=O)(=O)c3cccc([N+](=O)[O-])c3)cc2)cc1 | -2
85 | COc1cccc(C2=CC(=O)C[C@H](c3ccc(F)cc3)C2)c1 | 10
86 | CCCNC(=O)C(Cc1ccccc1F)NC(=O)c1ccccn1 (stereo not given) | -4
87 | CC(NC(=O)CN(C)CC(=O)Nc1cccc(F)c1)c1ccccc1 (stereo not given) | -7
88 | COc1ccc(SC[C@H](Cc2ccccc2)N2CC[C@@H](NC(=O)OCc3ccccc3)CCC2=O)cc1 | 6
89 | COc1ccc(S(=O)(=O)N2CCCCCC2)cc1C(=O)N(C)Cc1c(F)cccc1Cl | -2
90 | CCCCN1CCC(COC(=O)c2cc(Cl)c(N)c3c2OCCO3)CC1 | -4
91 | COc1ccc([C@H]2CC(=O)C=C(c3ccc4ccccc4c3)C2)cc1OC | 71
92 | O=C1C(Cc2ccccc2)Nc2ncnc(N3CCN(c4ccccc4)CC3)c2N1Cc1ccc(Br)cc1 (stereo not given) | -6
93 | COC(=O)C1=C(C)N(Cc2ccccc2)C(=NCC2CC2)N[C@H]1c1ccccc1 | 65

Only part of the results is shown. The share of hits here may be higher or lower than overall.
